High-throughput results from PubChem BioAssay.
NPYLR7 agonist: mosquito NPYLR7 agonism; HEK293T NPYLR7/Galpha15, GCaMP6s calcium fluorescence; activation, % at 10 µM; hit rate 0.15% among 270,000; AID 1259423; in the data active means activation above about 40%;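 further: 0% = vehicle and 100% = reference agonist at the receptor; some compounds past the cut are filed as inactive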
NPYLR7 agonist max-min: second read-out of NPYLR7 agonist, no call of its own (marks repeat the call); activation, %; measured here: Max-Min RFU normalised activation; some inactives read as strong as hits;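 span of the calcium signal over five minutes; 0% = vehicle and 100% = native peptide agonist; compound fluorescence can raise it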
Starred values were filed as active, the others as inactive; & = joins results of further samples. These rows are one share of the data (hit frequency here may not be typical).

SMILES,NPYLR7 agonist,NPYLR7 agonist max-min
CCNC(=O)NC(=O)COC(=O)CC1CC2CCC1C2 (stereo not given),10,10
CCc1nc2ccc(C(=O)NCc3ccc(OC)cc3)cn2c1N(C)CCCc1ccccc1,14,10
COc1cc(C)ccc1Oc1cc(N2CCc3ccccc3C2)ncn1,-9,-7
COCCCN1CC2=C(C1=O)C(c1ccc(C)cc1C)NC(=O)N2C (stereo not given),24,27
COc1ccc(Cc2nc3ccc(C(=O)NCc4cccc(C)n4)cc3o2)cc1OC,19,5
CN(C1CCCCC1)S(=O)(=O)N1CCCC(C(=O)NC2CCCC2)C1 (stereo not given),1,-1
O=C(CCc1nc2ccccc2[nH]c1=O)OCc1cccc([N+](=O)[O-])c1,3,2
COc1cc(/C=C/c2nc3sc4c(c3c(=O)[nH]2)CCCC4)ccc1OCC#N,4,-1
Cc1ccccc1-c1noc(CNC(=O)C2CC(C(C)C)=NO2)n1 (stereo not given),-5,-11
CC(C)(C(=O)OCc1cccc(OCC(N)=O)c1)c1ccccc1,0,0
c1ccc(CCc2noc(CN3CCCC(c4ccccc4)CC3)n2)cc1 (stereo not given),5,2
O=C(CCN1CCN(Cc2ccc(Br)s2)CC1)Nc1cccc(F)c1,-3,-2
Cn1cc(CCC(=O)N2CCCC(CCc3ccccc3C(F)(F)F)C2)cn1 (stereo not given),1,0
Cc1cccn2c(=O)c3cc(C(=O)N4CCCC(C)C4)n(C)c3nc12 (stereo not given),-1,-4
CCCCn1c(N)c(N(C)Cc2nc(-c3cccs3)no2)c(=O)[nH]c1=O,4,3
CCc1cnc(C)nc1NCc1cncn1CC(C)C,19,16
CCOC(=O)c1c(C)n(-c2ccccc2)c2ccc(OC(=O)c3ccccc3[N+](=O)[O-])cc12,-11,-4
Cc1noc(C)c1C(=O)NC12CC3CC(CC(C3)C1)C2,0,6
Cc1nc(C2(NS(=O)(=O)c3ccccc3)CCC2)no1,5&4,5&3
c1cnc(CCNc2nccc(C3CCCC3)n2)cn1,-10,-14
CCCNC(=O)CSc1c(C(C)C)cnc2c1c(=O)n(C)c(=O)n2C,8,14
CCN(CC)S(=O)(=O)c1ccc(N2CCN(C(C(N)=O)c3ccccc3)CC2)nc1 (stereo not given),5,-1
CCC(=O)N1CCCC1(C)C(=O)Nc1cc(OC)ccc1OC (stereo not given),-2,-1
C=CCCC(=O)N1C(C)CC(C(=O)NC(C)CC)C2CCCCC21 (stereo not given),2,6
COc1cccc(OCCCOc2cccc(Cl)c2Cl)c1,-6,8
O=C(NC(=S)NC1CCS(=O)(=O)C1)c1cccc([N+](=O)[O-])c1 (stereo not given),1,19
CCOC(=O)c1nc2cc(Cl)c(Cl)cc2nc1N1CCCN(C(=O)c2snnc2C)CC1,5,4
CCCCN(CC(=O)N1c2ccccc2-n2cccc2C1c1ccc(F)cc1)C(=O)c1cc(C(F)(F)F)cc(C(F)(F)F)c1 (stereo not given),12,12
Cc1cc(C(=O)N2CCOc3c(O)cc(-c4ccccc4C)cc3C2)no1,-2,-4
CC(C)OC(C(=O)c1ccccc1)c1ccccc1 (stereo not given),1,2
O=C(O)C1CCCNC1 (stereo not given),15&-6&4,14&-15&-3
O=C(Cn1ccc(=O)c2ccccc21)NCc1cc(-c2ccccc2)on1,1,0
CSCCC(NC(=O)c1cc(Cl)ccn1)C(=O)O (stereo not given),-1,-2
CCOc1ccc(NC(=O)N(CCCOC)CC(=O)N(Cc2ccc(F)cc2)Cc2cccs2)cc1,16,12
COc1ccc2[nH]c(CN3CCC(CCC(=O)NCC4CCCO4)CC3)c(C)c2c1 (stereo not given),10,10
CCCc1c(C)nn(-c2ccc(C(=O)NN(C)c3ccccc3)cc2)c1C,2,-1
Cc1ccc(CNC(=O)Cc2n[nH]c(=O)c3ccccc23)cc1,7,7
Cc1onc(-c2c(Cl)cccc2Cl)c1COC(=O)CN1CCC2(CC1)CC(=O)c1ccc(OCc3ccccc3)c(C)c1O2,-12,-21
O=C(NC1CCCc2c1cnn2-c1ccc(F)cc1F)c1ccccc1N1CCOCC1 (stereo not given),5,0
Cc1n(Cc2cccc(Cl)c2)cc[n+]1C,-12,-15
COCC(O)CN(Cc1ccccc1)Cc1c(C)nn(-c2ccccc2)c1Oc1ccccc1F (stereo not given),-2,6
Cc1cccc(Oc2cnn(C)c(=O)c2Nc2ccc(C(=O)N3CCCC3)cc2)c1C,5,9
O=C(c1ccc(-n2ccnc2)cc1)N1CCc2[nH]nc(-c3ccccc3)c2C1,0,-4
O=C(CSc1ncnc2sc3c(c12)CCC3)Nc1ccc(Cl)cc1,-5,-10
Cc1cc(=O)[nH]c(-n2nc(C)cc2NC(=O)Cc2cccc3ccccc23)n1,6,0
O=C1CC(N2CCN(C/C=C\c3ccccc3)CC2)C(=O)N1CCc1ccccc1 (stereo not given),2,0
CCc1c(C)nn(CCNC(=O)c2cnn3ccn(C)c23)c1C,10,11
Cc1ccc(/C=C2/SC(=S)N(CC(=O)O)C2=O)c(C)c1,-6,-8
CC1CN(c2cc(Cl)nc(SCC(=O)N3CCN(Cc4ccccc4)CC3)n2)CCN1C(=O)C1CC1 (stereo not given),-8,3
Cc1ccc(Nc2nc(NCc3ccc4c(c3)OCO4)nc3nccnc23)cc1C,2,4
CCC(C)C(NC(=O)Nc1ccc(F)c(F)c1)C(=O)Nc1nnc(-c2ccc(Br)cc2)s1 (stereo not given),12,1
CCC(C(=O)N(C)Cc1nc(C2CC2)no1)n1cc(C(C)=O)c2ccccc21 (stereo not given),9,7
COc1ccc2nc(NC(=O)/C=C/c3ccccc3OC)sc2c1,-2,-4
C=CCNC(=O)N1[C@@H](c2ccccc2)[C@@H](CO)C[C@]12CCCCN(CCO)C2=O,-2,7
CCc1cccc(N2C(=O)CSC2c2cccc(NC(=O)C(CC)c3ccccc3)c2)c1 (stereo not given),-6,1
O=C(NC1CCCC1)N1CCN(C(c2ccccc2)c2ccc(Cl)cc2)CC1 (stereo not given),2,5
CC1(C)Nc2cc(Cl)ccc2CO1,7,9
COc1cc(C(=O)N2CCC(CCc3ccc(-c4ccccc4)cc3)CC2)cc(OC)c1OC,27,26
O=C(O)[C@@H]1C[C@@H](c2ccccc2)CC[C@H]1C(=O)c1ccccc1,1,-2
S=C(Nc1ccc(N2CCOCC2)cc1)NC1CCCCC1,1,0

The results go on.
Below each compound – NPYLR7 agonist	NPYLR7 agonist max-min
CN1CCC=C(CCNC(=O)COc2ccccc2)C1
  7	3
CCc1ccc(OCC(=O)Nn2cnc3scc(-c4ccco4)c3c2=O)cc1
  0	3
CCC1C2=C(CC(C)(C)CC2=O)N=C(SCC(N)=O)C1C#N (stereo not given)
  -4	-8
Cc1ccc2c(c1)c(CNC(=O)c1occc1C)nn2C
  -1	6
COC(=O)c1sc(NS(=O)(=O)c2cc(C)ccc2C)cc1C
  2	1
COc1ccc(-n2c(-c3ccccc3)c[n+]3c2CCc2ccccc2-3)cc1
  3	27
COc1ccc(C2CC(c3ccc4ccccc4c3)=NN2C(=O)CN2CCC(OC)CC2)cc1 (stereo not given)
  14	12
Cc1cc(Cn2ccnc2-c2ccc3ccccc3n2)on1
  -4	-10
Cn1ccc(NC(=O)c2sccc2S(=O)(=O)N2CCCC2)n1
  12	10
CCc1nc2ccc(C(=O)NCCc3c[nH]c4ccccc34)cn2c1N(C)Cc1ccc(Cl)cc1
  9	10
CCCc1nc(N2CCCN(C(=O)Nc3ccc(SC)cc3)CC2)c2c(C)nn(-c3ccccc3)c2n1
  -6	-2
NC(=O)c1ccc(CNC2CCN(c3cccc(Cl)c3)C2)cc1 (stereo not given)
  -1	-5
CCc1nc(-c2nccn2C2CCN(Cc3ccccc3)CC2)c(C)[nH]1
  5	3
Cc1nsc(N2CCN(c3ccc(C(=O)NCCO)nn3)CC2)n1
  -1	19
Cc1c(NCc2cccnc2)cccc1C(=O)N1CCCC2(CCNC2)C1 (stereo not given)
  6	2
CCc1c(C#N)c(N)nc(SCC(=O)OCc2ccccc2)c1C#N
  -1	-4
Cc1ccn2c(NC(=O)Cc3ccccc3)c(-c3cc(F)ccc3F)nc2c1
  -5	-5
O=C(c1noc2c1CCCC2)N1CCCC(Nc2ccc3c(c2)OCO3)C1 (stereo not given)
  -1	-2
COc1cc(N2CCCC(N(C)CCc3ccccc3)C2)ncn1 (stereo not given)
  5	3
Cc1ccn2c(NC(=O)CC(C)(C)C)c(-c3cccc(Cl)c3)nc2c1
  -5	0
Cc1nc(C)c(-c2ccc(SCc3c(F)cccc3Cl)nn2)s1
  2	-10
Cc1ccc(S(=O)(=O)Nc2ccc(Cl)cc2)cc1C
  3	-1
Cn1c(=NC(=O)c2ccc([N+](=O)[O-])s2)sc2cc(Br)ccc21
  3	32
Cc1cccc(/C=C(/C(=O)N2CCN(C(=O)C3CC3)CC2)c2cccs2)c1
  -5	-6
O=C1CCC(=O)N1OCc1ccc(F)cc1
  -4	-5
CCc1ccc(Nc2ncnc3c2nnn3CC)cc1
  6	13
CN(C)C(=O)c1cccnc1SCc1cc(F)cc2c1OCOC2
  5	0
O=C(CCCn1nc(-c2cccs2)ccc1=O)N1CCN(c2ccccc2)CC1
  5	12
Cn1cccc1C=NNC(=O)C12CC3CC(CC(C3)C1)C2
  8	17
CC(C)NC(=O)C1CCN(C2CCN(Cc3ccc(-c4ccco4)cc3)CC2)CC1
  18&7	7&-1
COC(=O)c1ccc2c(c1)N(Cc1cccc(F)c1)C(=O)C(C)O2 (stereo not given)
  7	6
O=C(c1ccccc1Cl)N1CCCC(OCc2ccccc2)C1 (stereo not given)
  -4	2
COc1ccc(CCC2CCCNC2)cc1 (stereo not given)
  4	2
Cn1c(=O)c2c(ncn2CCOC(=O)c2cc(=O)[nH]c3ccccc23)n(C)c1=O
  4	-1
COc1ccc(OCC(=O)Nn2cnc3c(cnn3-c3ccc(C)c(C)c3)c2=O)cc1
  2	0
COC(=O)c1sc(NC(=O)CCS(=O)(=O)c2ccccc2)c(C(=O)OC)c1C
  -4	-5
O=C(Nc1ccc(Cl)c(-c2nc3cc(Cl)ccc3o2)c1)c1ccccc1F
  -4	-2
CCC(=O)N1CCC1(C)C(=O)Nc1cccc(F)c1 (stereo not given)
  5	1
COc1cc(CNC(=O)C2OC(c3cccs3)=NN2C(C)=O)cc(OC)c1 (stereo not given)
  14	12
CN(Cc1ccco1)C(=O)c1cc2ccccc2[nH]c1=O
  7	4
Cc1c(C(=O)N(C)Cc2nc3ccsc3c(=O)[nH]2)oc2c(F)cccc12
  4	0
O=C(Cc1cccc(F)c1)Nc1ccc(N2CCCCC2)c2ccncc12
  15	13
COc1ccc(NC(=O)C(C2CCCC2)N2CCN(C(=O)c3ccco3)CC2)cc1OC (stereo not given)
  -1	5
CCOc1ccc(C(C2Sc3nc(C)nn3C2=O)N2CCC(C(N)=O)CC2)cc1 (stereo not given)
  -2	-6
COc1ccc(CN(CCN2CCOCC2)CC(O)COCc2ccco2)cc1OC (stereo not given)
  -1	5

Part of the list above, reformatted:
Cn1cc(CCC(=O)N2CCCC(CCc3ccccc3C(F)(F)F)C2)cn1 (stereo not given)
  NPYLR7 agonist = 1
  NPYLR7 agonist max-min = 0

CCC(C(=O)N(C)Cc1nc(C2CC2)no1)n1cc(C(C)=O)c2ccccc21 (stereo not given)
  NPYLR7 agonist = 9
  NPYLR7 agonist max-min = 7

C=CCCC(=O)N1C(C)CC(C(=O)NC(C)CC)C2CCCCC21 (stereo not given)
  NPYLR7 agonist = 2
  NPYLR7 agonist max-min = 6

CC(C)OC(C(=O)c1ccccc1)c1ccccc1 (stereo not given)
  NPYLR7 agonist = 1
  NPYLR7 agonist max-min = 2

Remaining list, next part
Below each compound – NPYLR7 agonist	NPYLR7 agonist max-min
COCCN(Cc1ccccc1OS(=O)(=O)c1ccc(F)cc1)C(=O)c1ccccc1F
  1	8
COc1ccccc1C(=O)Nc1cccc(NC(=O)CN2CCCC2)c1
  -2	1
O=c1c(O)c(Br)ccc2c(Br)c(O)c(O)c(O)c12
  6	7
CN(C)c1cccc(Nc2cc(-c3ccsc3)ncn2)c1
  -5	-5
COc1ccc(C(=O)N2CCN(c3ccc([N+](=O)[O-])cc3)C(=O)C2C)cc1 (stereo not given)
  4	5
Cc1ccc(C)c(NC(=O)CN2C(=O)c3ccccc3C2=O)c1
  -2	-8
Cc1sc(NC(=O)Cc2ccccc2Br)nc1-c1onc2c1CCCC2
  4	4
COCc1nc(C(=O)NS(=O)(=O)N2CCCc3ccccc32)cs1
  9	8
OCC#Cc1csc(-c2nccn2-c2cccc(-c3ccn[nH]3)c2)c1
  3	0
COC(C(=O)Nc1ccnn1C1CCN(C(=O)Cc2c(C)noc2C)CC1)c1ccccc1 (stereo not given)
  -1	-3
CC1=CC(=NNc2nncc3ccccc23)CC1
  8	6
Cc1ccccc1C(=O)Nc1cc(S(=O)(=O)N(C)C)cc(C)c1C
  7	0
CSC(N)=NCCCC(N)C(=O)O (stereo not given)
  -5	-8
Cc1ccc(CN2CCCC(OCc3cccnc3)C2)o1 (stereo not given)
  -4	-5
COc1ccc(S(=O)(=O)N2CCC(c3ccccc3)C2)c(C)c1 (stereo not given)
  1	-2
NC1(C(=O)NCCC2CN(Cc3ccccn3)CCO2)CCCC1 (stereo not given)
  9	7

One compound at a time, as listed above. Order of values: NPYLR7 agonist | NPYLR7 agonist max-min
Profile of NC1(C(=O)NCCC2CN(Cc3ccccn3)CCO2)CCCC1 (stereo not given) : 9 | 7
Profile of Cn1cc(CCC(=O)N2CCCC(CCc3ccccc3C(F)(F)F)C2)cn1 (stereo not given) : 1 | 0
Profile of O=C1CC(N2CCN(C/C=C\c3ccccc3)CC2)C(=O)N1CCc1ccccc1 (stereo not given) : 2 | 0
Profile of Cc1nc(C2(NS(=O)(=O)c3ccccc3)CCC2)no1 : 5&4 | 5&3
Profile of OCC#Cc1csc(-c2nccn2-c2cccc(-c3ccn[nH]3)c2)c1 : 3 | 0
